# Ran FRET = inhibitors of Ran–importin-beta complex formation, primary screen, biochemical, CFP-Ran/YFP-importin-beta FRET, RCC1, cell-free (AID 434961). inhibition, %. CFP-Ran/YFP-importin-beta FRET, cell-free; active compounds read high. 0.2% of 7,700 active;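 active = more than half of the replicate wells above 15% inhibition; inconclusive = exactly half above it; inactive = fewer than half above it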;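 also: 0% = DMSO wells and 100% inhibition = RanGDP control wells on each plate; stock of unstated strength diluted about 400-fold; mean of two wells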
# An asterisk follows results filed as active; ? = inconclusive. A portion of the library, so the mix of outcomes need not match the whole.
C[C@H](CO)N1C[C@H](C)[C@H](CN(C)Cc2ccncc2)Oc2ccc(NS(C)(=O)=O)cc2CC1=O
  Ran FRET: 0.2

C[C@@H]1CN([C@@H](C)CO)C(=O)Cc2cc(NC(=O)Cc3ccccc3)ccc2O[C@H]1CN(C)C(=O)Nc1ccccc1
  Ran FRET: 3.2

Cc1cc(C(=O)Nc2cccc3c2O[C@H](CN(C)C(=O)NC2CCCCC2)[C@@H](C)CN([C@H](C)CO)C3=O)n(C)n1
  Ran FRET: -1.2

C[C@@H]1CN([C@@H](C)CO)C(=O)Cc2cc(NC(=O)CCC(F)(F)F)ccc2O[C@H]1CN(C)C(=O)Nc1ccccc1
  Ran FRET: -2.7

C[C@@H]1CN([C@H](C)CO)C(=O)c2cccc(NC(=O)NC3CCCCC3)c2O[C@@H]1CN(C)C(=O)Nc1ccc(C(F)(F)F)cc1
  Ran FRET: ?

CC(C)NC(=O)N(C)C[C@H]1OCCCC[C@H](C)Oc2ccc(NS(=O)(=O)c3ccccc3)cc2C(=O)N([C@@H](C)CO)C[C@H]1C
  Ran FRET: 9.0

C[C@H](CO)N1C[C@H](C)[C@@H](CN(C)C)Oc2ccc(NS(=O)(=O)c3ccccc3)cc2C1=O
  Ran FRET: -2.7

COc1ccc(NC(=O)Nc2cccc3c2O[C@H](CN(C)S(=O)(=O)c2ccc(Cl)cc2)[C@@H](C)CN([C@H](C)CO)C3=O)cc1
  Ran FRET: 1.6

C[C@@H]1CCCCO[C@@H](CN(C)Cc2ccncc2)[C@@H](C)CN([C@@H](C)CO)C(=O)c2cc(NC(=O)c3ccncc3)ccc2O1
  Ran FRET: 0.2

C[C@@H]1CN([C@H](C)CO)C(=O)c2cccc(NC(=O)NC3CCCCC3)c2O[C@@H]1CN(C)S(=O)(=O)c1ccc(Cl)cc1
  Ran FRET: -4.6

C[C@H]1CN([C@@H](C)CO)C(=O)Cc2cc(NC(=O)C3CC3)ccc2O[C@H]1CN(C)S(=O)(=O)c1cccs1
  Ran FRET: -2.4

Cc1noc(C)c1NC(=O)N(C)C[C@@H]1OCc2cn(nn2)CCCC(=O)N([C@H](C)CO)C[C@@H]1C
  Ran FRET: 0.4

C[C@H]1CCCCO[C@H](CN(C)C)[C@@H](C)CN([C@@H](C)CO)C(=O)c2cc(NC(=O)c3ccncc3)ccc2O1
  Ran FRET: -8.2

Cc1noc(C)c1NC(=O)Nc1cccc2c1O[C@H](CN(C)C)[C@H](C)CN([C@H](C)CO)C2=O
  Ran FRET: -1.2

C[C@H]1CN([C@@H](C)CO)C(=O)c2cccc(NS(=O)(=O)c3ccccc3)c2O[C@@H]1CN(C)C(=O)Nc1cccc2ccccc12
  Ran FRET: -1.5

C[C@H]1CN([C@@H](C)CO)C(=O)Cc2cc(NS(=O)(=O)c3ccccc3)ccc2O[C@@H]1CN(C)C(=O)Nc1ccccc1
  Ran FRET: 0.1

Cc1noc(C)c1NC(=O)N(C)C[C@@H]1Oc2ccc(NC(=O)CCN3CCOCC3)cc2CC(=O)N([C@H](C)CO)C[C@@H]1C
  Ran FRET: ?

C[C@@H]1CN([C@H](C)CO)C(=O)c2cccc(N(C)C)c2O[C@H]1CN(C)S(=O)(=O)c1ccc(Cl)cc1
  Ran FRET: -0.2

COc1ccc(S(=O)(=O)Nc2ccc3c(c2)C(=O)N([C@H](C)CO)C[C@@H](C)[C@@H](CN(C)S(=O)(=O)c2cccs2)O3)cc1
  Ran FRET: -0.1

C[C@H](CO)N1C[C@H](C)[C@H](CN(C)C(=O)Nc2ccc(F)cc2)Oc2ncccc2C1=O
  Ran FRET: -1.5

C[C@H](CO)N1C[C@H](C)[C@H](CN(C)C(=O)Nc2ccc(F)cc2)OCCCC[C@H](C)Oc2ccc(NS(=O)(=O)c3ccccc3)cc2C1=O
  Ran FRET: 3.6

C[C@@H]1CN([C@@H](C)CO)C(=O)CCCn2nncc2CO[C@H]1CN(C)C(=O)Nc1ccc(C(C)(C)C)cc1
  Ran FRET: -1.2

Cc1noc(C)c1S(=O)(=O)N(C)C[C@H]1OCCCC[C@@H](C)Oc2ccc(NC(=O)NC(C)C)cc2C(=O)N([C@H](C)CO)C[C@@H]1C
  Ran FRET: 0.9

C[C@H]1CCCCO[C@H](CN(C)C(=O)Nc2ccc(C(F)(F)F)cc2)[C@@H](C)CN([C@@H](C)CO)C(=O)c2cc(NS(C)(=O)=O)ccc2O1
  Ran FRET: ?

C[C@H]1CN([C@@H](C)CO)C(=O)c2cccc(NS(=O)(=O)c3cccs3)c2O[C@@H]1CN(C)S(=O)(=O)c1ccc(Cl)cc1
  Ran FRET: 1.5

# Rewritten as tab-separated lines: entries from further up
smiles	Ran FRET
Cc1noc(C)c1NC(=O)Nc1cccc2c1O[C@H](CN(C)C)[C@H](C)CN([C@H](C)CO)C2=O	-1.2
C[C@H]1CN([C@@H](C)CO)C(=O)c2cccc(NS(=O)(=O)c3ccccc3)c2O[C@@H]1CN(C)C(=O)Nc1cccc2ccccc12	-1.5
C[C@H]1CN([C@@H](C)CO)C(=O)Cc2cc(NS(=O)(=O)c3ccccc3)ccc2O[C@@H]1CN(C)C(=O)Nc1ccccc1	0.1

# Continuation:
C[C@@H]1CCCCO[C@H](CN(C)C)[C@H](C)CN([C@@H](C)CO)C(=O)c2cc(NC(=O)c3ccncc3)ccc2O1
  Ran FRET: 3.2

C[C@H](CO)N1C[C@H](C)[C@H](CN(C)C)Oc2ccc(NC(=O)Nc3cccc4ccccc34)cc2C1=O
  Ran FRET: -0.2

COc1ccc(NC(=O)Nc2ccc3c(c2)C(=O)N([C@@H](C)CO)C[C@@H](C)[C@@H](CN(C)C)O3)cc1
  Ran FRET: -0.9

C[C@@H]1CN([C@H](C)CO)C(=O)c2cccc(NS(=O)(=O)c3cccs3)c2O[C@@H]1CN(C)Cc1ccc(Cl)c(Cl)c1
  Ran FRET: -3.4

Cc1noc(C)c1NC(=O)Nc1cccc2c1O[C@H](CN(C)S(=O)(=O)c1cn(C)cn1)[C@@H](C)CN([C@@H](C)CO)C2=O
  Ran FRET: -2.0

Cc1noc(C)c1NC(=O)N(C)C[C@H]1OCCCC[C@@H](C)Oc2ccc(NC(=O)c3ccncc3)cc2C(=O)N([C@@H](C)CO)C[C@H]1C
  Ran FRET: -4.2

COc1ccc(CN(C)C[C@H]2Oc3c(NS(=O)(=O)c4cccs4)cccc3C(=O)N([C@H](C)CO)C[C@@H]2C)cc1
  Ran FRET: 11.1

C[C@H]1CCCCO[C@@H](CN(C)C(=O)C2CCCCC2)[C@@H](C)CN([C@@H](C)CO)C(=O)c2cc(NS(=O)(=O)c3ccccc3)ccc2O1
  Ran FRET: -0.2

COc1ccc(S(=O)(=O)N(C)C[C@@H]2Oc3c(NS(=O)(=O)c4cn(C)cn4)cccc3C(=O)N([C@@H](C)CO)C[C@@H]2C)cc1
  Ran FRET: -4.2

C[C@H](CO)N1C[C@H](C)[C@@H](CN(C)Cc2ccc3c(c2)OCO3)Oc2ccc(NC(=O)Nc3ccc(F)cc3)cc2C1=O
  Ran FRET: 4.5

C[C@@H]1CN([C@H](C)CO)C(=O)Cc2cc(NC(=O)Cc3ccccc3)ccc2O[C@@H]1CN(C)S(=O)(=O)c1cn(C)cn1
  Ran FRET: ?

Cc1noc(C)c1S(=O)(=O)Nc1ccc2c(c1)CC(=O)N([C@H](C)CO)C[C@@H](C)[C@@H](CN(C)C)O2
  Ran FRET: -0.3

C[C@@H]1CN([C@@H](C)CO)C(=O)c2cc(NC(=O)Cn3cnnn3)ccc2O[C@@H]1CN(C)CC1CC1
  Ran FRET: 5.5

Cc1noc(C)c1NC(=O)Nc1ccc2c(c1)C(=O)N([C@H](C)CO)C[C@@H](C)[C@H](CN(C)Cc1ccccc1)O2
  Ran FRET: -1.9

C[C@@H]1CCCCO[C@H](CN(C)C)[C@H](C)CN([C@H](C)CO)C(=O)c2cc(NC(=O)CCCN(C)C)ccc2O1
  Ran FRET: 0.1

C[C@@H]1CCCCO[C@@H](CN(C)Cc2ccc(C(=O)O)cc2)[C@H](C)CN([C@@H](C)CO)C(=O)c2cc(NC(=O)c3ccncc3)ccc2O1
  Ran FRET: 8.7

C[C@@H]1CCCCO[C@H](CN(C)S(=O)(=O)c2ccc(F)cc2)[C@@H](C)CN([C@H](C)CO)C(=O)c2cc(NC(=O)c3ccncc3)ccc2O1
  Ran FRET: 4.5

CC(C)NC(=O)Nc1ccc2c(c1)C(=O)N([C@H](C)CO)C[C@H](C)[C@@H](CN(C)S(=O)(=O)c1cccs1)OCCCC[C@@H](C)O2
  Ran FRET: -3.7

C[C@@H]1CN([C@H](C)CO)C(=O)c2cccc(NC(=O)NC3CCCCC3)c2O[C@H]1CN(C)S(=O)(=O)c1cn(C)cn1
  Ran FRET: -4.9

C[C@@H]1CCCCO[C@H](CN(C)C)[C@H](C)CN([C@@H](C)CO)C(=O)c2cc(NC(=O)Cc3ccccc3)ccc2O1
  Ran FRET: -3.0

C[C@H](CO)N1C[C@H](C)[C@@H](CN(C)C(=O)Nc2ccc(F)cc2)Oc2ccc(NS(=O)(=O)c3cn(C)cn3)cc2C1=O
  Ran FRET: 1.5

Cc1noc(C)c1S(=O)(=O)N(C)C[C@@H]1Oc2ccc(NC(=O)Nc3cccc4ccccc34)cc2CC(=O)N([C@H](C)CO)C[C@@H]1C
  Ran FRET: -2.5

C[C@H](CO)N1C[C@H](C)[C@@H](CN(C)C)OCCCC[C@H](C)Oc2ccc(NC(=O)C3CCCCC3)cc2C1=O
  Ran FRET: 1.8

C[C@H](CO)N1C[C@H](C)[C@@H](CN(C)Cc2ccc3c(c2)OCO3)Oc2c(NS(=O)(=O)c3ccc(Cl)cc3)cccc2C1=O
  Ran FRET: 0.6

C[C@H](CO)N1C[C@H](C)[C@H](CN(C)C)OCCCC[C@H](C)Oc2ccc(NC(=O)Nc3ccc(F)cc3)cc2C1=O
  Ran FRET: -0.3

C[C@@H]1CN([C@@H](C)CO)C(=O)Cc2cc(NC(=O)CCC(F)(F)F)ccc2O[C@H]1CN(C)C
  Ran FRET: 1.6

C[C@H]1CN([C@@H](C)CO)C(=O)c2cc(NC(=O)NC3CCCCC3)ccc2O[C@H]1CN(C)Cc1ccc(C(=O)O)cc1
  Ran FRET: 3.9

COc1ccc(NC(=O)N(C)C[C@@H]2Oc3ccc(NS(=O)(=O)c4ccccc4)cc3C(=O)N([C@H](C)CO)C[C@H]2C)cc1
  Ran FRET: -1.0

COc1ccc(S(=O)(=O)N(C)C[C@H]2Oc3ccc(NC(=O)c4ccncc4)cc3C(=O)N([C@@H](C)CO)C[C@@H]2C)cc1
  Ran FRET: -0.6

C[C@@H]1CN([C@@H](C)CO)C(=O)Cc2cc(NS(=O)(=O)c3cccs3)ccc2O[C@H]1CN(C)S(=O)(=O)c1ccccc1
  Ran FRET: 2.4

C[C@H](CO)N1C[C@H](C)[C@H](CN(C)Cc2ccc3c(c2)OCO3)Oc2c(NC(=O)C3CCOCC3)cccc2C1=O
  Ran FRET: 6.2

C[C@@H]1CN([C@@H](C)CO)C(=O)c2cc(NS(C)(=O)=O)ccc2O[C@H]1CN(C)S(=O)(=O)c1cccs1
  Ran FRET: 5.7

C[C@@H]1CN([C@@H](C)CO)C(=O)c2cc(N(C)C)ccc2O[C@@H](C)CCCCO[C@@H]1CN(C)C(=O)CCC(F)(F)F
  Ran FRET: -5.9

C[C@@H]1CN([C@@H](C)CO)C(=O)c2cc(NC(=O)CCN3CCOCC3)ccc2O[C@H]1CN(C)C(=O)Nc1cccc2ccccc12
  Ran FRET: -2.2

C[C@@H]1CN([C@H](C)CO)C(=O)CCCn2cc(nn2)CO[C@H]1CN(C)C(=O)c1ccccc1
  Ran FRET: -0.8

Cc1noc(C)c1NC(=O)N(C)C[C@@H]1Oc2ccc(NS(=O)(=O)c3cccs3)cc2C(=O)N([C@H](C)CO)C[C@@H]1C
  Ran FRET: -1.6

C[C@@H]1CN([C@@H](C)CO)C(=O)Cc2cc(NC(=O)Nc3ccc(F)cc3)ccc2O[C@@H]1CN(C)Cc1ccncc1
  Ran FRET: 1.2

C[C@@H]1CN([C@H](C)CO)C(=O)c2cc(NS(=O)(=O)c3cccs3)ccc2O[C@@H]1CN(C)C
  Ran FRET: 0.5

C[C@H]1CN([C@@H](C)CO)C(=O)c2cc(NC(=O)Cc3ccccc3)ccc2O[C@@H]1CN(C)CC1CC1
  Ran FRET: 2.0

CC(C)NC(=O)N(C)C[C@@H]1OCCCC[C@H](C)Oc2ccc(NC(=O)CCC(F)(F)F)cc2C(=O)N([C@H](C)CO)C[C@@H]1C
  Ran FRET: 3.6

C[C@@H]1CN([C@@H](C)CO)C(=O)c2cc(NC(=O)Nc3ccc4c(c3)OCO4)ccc2O[C@@H]1CN(C)S(=O)(=O)c1ccc(F)cc1
  Ran FRET: 1.5

C[C@@H]1CN([C@@H](C)CO)C(=O)Cc2cc(NC(=O)Cc3ccccc3)ccc2O[C@@H]1CN(C)Cc1ccncc1
  Ran FRET: 4.1

C[C@H](CO)N1C[C@H](C)[C@H](CN(C)C(=O)Nc2ccccc2)Oc2ccc(NC(=O)NC3CCCCC3)cc2CC1=O
  Ran FRET: 2.1

CNC[C@@H]1Oc2c(NC(=O)c3cc(C)nn3C)cccc2C(=O)N([C@@H](C)CO)C[C@H]1C
  Ran FRET: 2.6

Cc1ccc(S(=O)(=O)Nc2ccc3c(c2)CC(=O)N([C@H](C)CO)C[C@@H](C)[C@@H](CN(C)Cc2ccncc2)O3)cc1
  Ran FRET: 1.7

Cc1noc(C)c1NC(=O)N(C)C[C@@H]1Oc2c(NC(=O)C3CCOCC3)cccc2C(=O)N([C@@H](C)CO)C[C@@H]1C
  Ran FRET: -2.2

C[C@@H]1CN([C@@H](C)CO)C(=O)c2cc(NC(=O)NC3CCCCC3)ccc2O[C@@H]1CN(C)C(=O)Nc1ccc2c(c1)OCO2
  Ran FRET: 2.9

C[C@@H]1CCCCO[C@H](CN(C)S(=O)(=O)c2cn(C)cn2)[C@@H](C)CN([C@H](C)CO)C(=O)c2cc(NS(C)(=O)=O)ccc2O1
  Ran FRET: -0.6

C[C@H](CO)N1C[C@H](C)[C@@H](CN(C)S(=O)(=O)c2cccs2)Oc2ccc(N(C)C)cc2C1=O
  Ran FRET: -1.3
